NPYLR7 ag = mosquito NPYLR7 agonism; HEK293T NPYLR7/Galpha15, GCaMP6s calcium fluorescence; activation, % at 10 µM; actives 0.15% (n = 270,000); AID 1259423; in the data active means activation above about 40%;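 further: 0% = vehicle and 100% = reference agonist at the receptor; some compounds past the cut are filed as inactive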
NPYLR7 ag max-min = second read-out of NPYLR7 ag, no call of its own (marks repeat the call); activation, %; measured here: Max-Min RFU normalised activation; some inactives read as strong as hits;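 span of the calcium signal over five minutes; 0% = vehicle and 100% = native peptide agonist; compound fluorescence can raise it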
Numbers without * were called inactive; & = joins results of further samples. The list is partial, so the mix of outcomes need not match the whole.

Each structure is followed by: NPYLR7 ag	NPYLR7 ag max-min
- CCc1ccc2c(c1)NC(=O)C2(C)Cc1ccc(OC(F)(F)F)cc1 (stereo not given)
 : 0	1
- CCC(Sc1nc2cc(OC)c(OC)cc2c2nc(C)nn12)C(=O)N1CCOCC1 (stereo not given)
 : -11	-12
- Cc1cc(-c2cccc3c2CCNC3)nc(N2CCCC2)n1
 : 24	15
- C/C(=C/C(=O)N1CCN(S(C)(=O)=O)CC1)CCc1ccccc1
 : 8	4
- O=C(COc1coc(CN2CCN(c3ccccc3)CC2)cc1=O)NCc1ccco1
 : 3	1
- CCc1cn[nH]c1C1CCN(C(=O)C(O)c2ccccc2Cl)CC1 (stereo not given)
 : 1	1
- Cc1noc(C)c1S(=O)(=O)NC(=O)C1(C)CCN1C(=O)C1(c2ccc(Cl)cc2)CC1 (stereo not given)
 : 5	2
- O=Cc1ccc(Oc2cc(-n3cccn3)nc(-c3ccccc3)n2)cc1
 : 4	3
- Cn1c(Cl)cnc1CN1CCN(c2ccccc2O)CC1
 : 8	6
- CN1C(=O)[C@H](OC(N)=O)[C@@H](C(=O)Nc2ccccc2)C12CCNCC2
 : 2	14
- COc1ccc(C2=NN(c3ccc(C=O)cc3)CC2)cc1
 : -13	-20
- CCOc1ccc(S(=O)(=O)c2cnc(SCC(=O)Nc3cccc(C)c3)[nH]c2=O)cc1
 : -2	-8
- O=C(COc1cccc2c1CCCC2O)Nc1ccc(F)c(F)c1 (stereo not given)
 : 4	3
- COc1ccccc1CN(CCO)C(=O)C1CC1c1cccc(Cl)c1 (stereo not given)
 : -5	-6
- O=C(CN1CCN(C(=O)/C=C/c2ccc3c(c2)OCCCO3)CC1)Nc1ccc(F)cc1
 : 3	1
- O=[N+]1C=C(c2ccco2)N([O-])C2CCCCC21 (stereo not given)
 : 4	4
- COc1ccc(C(N)=O)cc1-c1ccc(NC(C)=O)cc1
 : -2	-4
- O=c1c(S(=O)(=O)c2ccc(Cl)cc2)c[nH]c2c(F)cc(F)cc12
 : 8	8
- Cc1ccc(F)c(NC(=O)CCC(=O)NC[C@H]2C[C@H]3C=C[C@H]2C32CC2)c1
 : 11	9
- CN(C)c1cccc(C(NS(=O)(=O)c2ccc3c(c2)CN(C(=O)C(F)(F)F)CC3)c2ccc(S(C)(=O)=O)cc2)c1 (stereo not given)
 : -6	-9

Grouped by structure: those above containing an NH in an aromatic ring.
Each structure is followed by: NPYLR7 ag	NPYLR7 ag max-min
- CCc1cn[nH]c1C1CCN(C(=O)C(O)c2ccccc2Cl)CC1 (stereo not given)
 : 1	1
- CCOc1ccc(S(=O)(=O)c2cnc(SCC(=O)Nc3cccc(C)c3)[nH]c2=O)cc1
 : -2	-8
- O=c1c(S(=O)(=O)c2ccc(Cl)cc2)c[nH]c2c(F)cc(F)cc12
 : 8	8

Next part:
Each structure is followed by: NPYLR7 ag	NPYLR7 ag max-min
- CCOC(=O)C1=C(C)NC2=C(C(=O)CC(c3ccc(Cl)cc3)C2)C1c1cccc(OC)c1OC (stereo not given)
 : -1	-4
- COc1ccc(C)cc1C(C)NC(=O)c1cccc(S(=O)(=O)N(C)OC)c1 (stereo not given)
 : 7	3
- COCc1ccccc1NC(C)c1ccc(F)cc1F (stereo not given)
 : 2	1
- Cc1ccc(CN(C)C(=O)CC2C(=O)NCCN2Cc2ccc(-c3ccccc3)cc2)o1 (stereo not given)
 : 2	-3
- N#Cc1cccc(S(=O)(=O)N2CCN(C(=O)C3CC3)CC2)c1
 : 7	8
- S=C(NCC1CCCO1)Nc1ccc(Cl)c(Cl)c1 (stereo not given)
 : 8	4
- CN(C)c1cccc2c(S(=O)(=O)N3CCN(c4nccc(-c5ccco5)n4)CC3)cccc12
 : 13	17
- Cc1ccc2nc(SCc3cccc(F)c3)nc(=O)n2c1
 : 0	-5
- COc1ccc(NC(=O)N(Cc2ccccc2)Cc2cccn2Cc2cccc(C(F)(F)F)c2)c(OC)c1
 : -8	-5
- CC(C)C(=O)N1CC(=O)N2CCc3ccc(F)cc3C2C1 (stereo not given)
 : 1	13
- C=CCC(=O)N(CC#Cc1ccccc1)CCC
 : -5	-6
- O=C1COCc2ccc(-c3ccncc3)cc2N1Cc1ccccc1
 : 8	4
- Cc1cc(C(=O)N2CCC2(C)C(=O)NS(=O)(=O)c2ccc(Cl)cc2)nn1C (stereo not given)
 : 1	2
- O=C(CSc1nnc2n1CCN2c1ccccc1)c1ccccc1
 : 2	2
- CCCSc1ncccc1C(=O)NCC(C)(C)CN(C)C
 : -13	-23
- C=c1ccc(C)cc1=C1NN=C(C(F)(F)F)O1
 : -3	-3
- O=C1CCC2(C(=O)Nc3ccc4c(c3)OC(F)(F)O4)Sc3ccccc3N12 (stereo not given)
 : -1	-1
- CC(C)CCN(Cc1cccn1Cc1ccccc1F)CC(O)Cc1ccccc1 (stereo not given)
 : -2	-1
- Cc1cccc(NC(=O)CSc2nc(=O)n3cc(C)ccc3n2)c1
 : 5	1
- CCCC(=O)N1CCC1(C)C(=O)Nc1ncc(C(=O)OC)s1 (stereo not given)
 : 7	1
- CCCCc1ccc(NC(=O)CN2CCSC2=O)cc1
 : 1	5
- COc1ccc(C(=O)N2CCN(c3nc(C)nc(C)c3Cc3cc(C)ccc3C)CC2)c(OC)c1
 : 2	9
- CCOC(=O)C(=Cc1ccco1)C(C)=O
 : 15	27
- COc1ccc(C(C2Sc3nc(C)nn3C2=O)N2CCCC(C)C2)cc1 (stereo not given)
 : 4	0
- COc1ccc(C(=O)N2CCC(c3cn(C)c4ccc(C)cc34)CC2)cc1OC
 : -14	-3
- O=C(COc1ccccc1)N1CCSC1c1cccc(Cl)c1Cl (stereo not given)
 : -6	-1
- Cc1ccc(C(NC(=O)Nc2ccccc2)c2cccs2)cc1 (stereo not given)
 : 4	10
- COc1ccccc1CCC(=O)N1CCCC(C(=O)c2cccc(C(F)(F)F)c2)C1 (stereo not given)
 : 2	-1
- C=CCN(CC(=O)NC(=O)NC(C)C)Cc1ccc(Cl)s1
 : 3	0
- CCOC(=O)c1csc(CN(CCOC)C(=O)c2cccc([N+](=O)[O-])c2)n1
 : 0	5
- Cc1cccc(Nc2ncccc2C(=O)NC(c2ccccc2)c2ccccc2)c1C
 : -6	-6
- CCC(C(=O)NCc1cccnc1)n1c(=O)n(-c2ccc(OC)cc2)c(=O)c2ccccc21 (stereo not given)
 : 11	19
- CC(Oc1ccccc1)C(=O)Oc1coc(CSc2ncccn2)cc1=O (stereo not given)
 : -14	-9
- Brc1ccc(CNc2ccc(CNc3ncn[nH]3)cc2)cc1
 : -14	-21
- CS(=O)(=O)N1CCC(Oc2cccc(C(=O)NCC[C@@H]3C[C@@H]4C=C[C@H]3C4)c2)CC1
 : 4	2
- CCOC(=O)N1CCC(NC(=O)C2=C(C)C(=O)OC23CCC(C)CC3)CC1 (stereo not given)
 : 5	5
- Cc1csc(C(O)(CC(=O)OCC(=O)N2CCCC2)C(F)(F)F)n1 (stereo not given)
 : -4	-5
- O=C(C1CC(c2ccc(Cl)s2)=NO1)N1CCN(Cc2cccc(O)c2)CC1 (stereo not given)
 : 4	2
- COc1ccc(F)cc1CSC(C(=O)NC(N)=O)C(C)C (stereo not given)
 : 7	4
- Cc1ccc(NC(=O)c2cc(C3CC3)n(C3CCS(=O)(=O)C3)n2)cc1F (stereo not given)
 : 2	0

Reformatted: five of the compounds above.
molecule | NPYLR7 ag | NPYLR7 ag max-min
CCOC(=O)c1csc(CN(CCOC)C(=O)c2cccc([N+](=O)[O-])c2)n1 | 0 | 5
Cc1cccc(Nc2ncccc2C(=O)NC(c2ccccc2)c2ccccc2)c1C | -6 | -6
CCC(C(=O)NCc1cccnc1)n1c(=O)n(-c2ccc(OC)cc2)c(=O)c2ccccc21 (stereo not given) | 11 | 19
CC(Oc1ccccc1)C(=O)Oc1coc(CSc2ncccn2)cc1=O (stereo not given) | -14 | -9
Brc1ccc(CNc2ccc(CNc3ncn[nH]3)cc2)cc1 | -14 | -21

Additional structures follow:
Each structure is followed by: NPYLR7 ag	NPYLR7 ag max-min
- CC1=C[C@@H](C)C[C@@H](C)[C@@H](Cc2cnco2)OC(=O)/C(C)=C/[C@@H](C)C[C@@H](C)[C@@H](Cc2cnco2)OC1=O
 : -7	-14
- CCCc1nc(N2CCN(C(=O)CSc3ccccc3)CC2)c2c(C)nn(-c3ccc(F)cc3)c2n1
 : -6	9
- COCCn1c(N2CCN(c3ccc(OC)cc3)CC2)nc2c1c(=O)n(C)c(=O)n2C
 : -6	-5
- COCC(C)(C)CNC(=O)c1nc2ccccc2[nH]c1=O
 : 10	11
- CC(C)(C)Nc1c(-c2ccc3c(c2)OCO3)nc2c(OCc3ccccc3)cccn12
 : 2	14
- N#Cc1ccc(S(=O)(=O)Nc2cc(C(F)(F)F)[nH]n2)cc1
 : 4	5
- CO[C@H]1C(=O)N(C)C2(CCN(S(=O)(=O)c3ccccc3)CC2)[C@@H]1C(=O)N(C)c1ccccc1
 : 8	18
- Cc1ccc(S(=O)(=O)NCCCCN2CCCCC2C)s1 (stereo not given)
 : 8	7
- CC(C)=CC1C(C(=O)Nc2nc3c(s2)CCC3)C1(C)C (stereo not given)
 : -4	-1
- CN(C)c1nc2ccccc2nc1NS(=O)(=O)c1ccccc1C(F)(F)F
 : -2	-3
- COc1cccc(C(=O)NC(C)C23CC4CC(CC(C4)C2)C3)c1 (stereo not given)
 : -6	-8
- CNc1cncc(-c2cccc(C)c2)n1
 : 4	2
- CCOc1ccc(NC(=O)N(CCCOC)CC(=O)N(CCc2ccc(OC)c(OC)c2)Cc2sccc2C)cc1
 : -2	10
- CC(Nc1ccc2nnc(C3CC3)n2n1)c1nc(C(C)(C)C)cs1 (stereo not given)
 : 3	2
- COc1cccc2c(SCC(=O)NCc3ccc(F)cc3)nccc12
 : -1	-4
- CC(C)CN(Cc1nccn1Cc1c(F)cccc1Cl)C(=O)c1ccc(F)cc1
 : 13	22
- Cc1ccc(-n2nnc3c(N4CCN(C(=O)C5CCCCC5)CC4)ncnc32)cc1
 : -2	-12
- Nc1nccnc1C(=O)N1CCN(C(=O)C(c2ccccc2)c2ccccc2)CC1
 : -3	-3
- Nc1cc(-c2ccc(Cl)c(Cl)c2)nn1-c1ccc(C(=O)NCc2cccnc2)cc1
 : 5	7
- COc1nc(-c2ccccc2C)n(-c2ccc(NC(=O)c3ccccc3F)cc2)n1
 : 22	19
- O=C(NC(c1ccc(F)cc1)c1ccc2ccccc2n1)C1CCN(Cc2ccc(Cl)c(Cl)c2)CC1 (stereo not given)
 : 8	4
- Cc1cc(C)n2nc(C(=O)N/N=C\c3ccccc3F)nc2n1
 : -9	-17
- CNc1cncc(-c2cccc(OC)c2F)n1
 : 1	-1
- Cc1ccc(C(=O)Nc2ccc(OC3CCCC3)cc2)cn1
 : -3	-3
- O=C(CSc1nc(=O)n(CCCO)c2c1CCCC2)Nc1nccs1
 : -13	-23
- O=C(NCCc1cccs1)c1ccc(-c2n[nH]c3c2CCCc2ccccc2-3)cc1
 : -2	10
- O=C(NCc1cccnc1)NC1CCN(c2ccccc2)C1 (stereo not given)
 : 1	0
- N[C@@H](C(=O)O)[C@@H](O)[C@H](O)[C@H](O)CO
 : -7	-12
- CC(C)NC(=O)c1cc(-c2ccccc2F)nc2cc(-c3ccccc3)nn12
 : 9&20	13&29
- CC(=O)N1CCC[C@H]1C(=O)N1CCC(Cc2ccccc2Cl)(C(=O)O)CC1
 : -1	-6
- CN(Cc1ccccc1-n1cnnc1)C1CCCCC1
 : -3	-3
- C#CCOc1ccc(F)cc1NCC(=O)N1CCOCC1
 : 1	10
- Cc1cc(C(=O)CSc2nn3c(=O)c(C(C)(C)C)nnc3s2)c(C)n1C1CC1
 : 1	-1
- CCCn1c(=O)c(C(=O)NC2CC2)nn(-c2cccc(OC)c2)c1=O
 : 11	13
- c1cncc(CSc2ccc(-c3ccc4c(c3)OCO4)nn2)c1
 : 1	1
- NC(=O)c1cc2cc(Br)ccc2oc1=Nc1ccc(F)cc1
 : 0	-1
- Cc1cc(C(=O)Nc2nc(C)cs2)on1
 : -1	5
- Cc1ccc(C(Nc2ccccn2)c2c(C)[nH]c3ccccc23)cc1 (stereo not given)
 : -1	-2
- Cc1nn(Cc2ccc(F)cc2Cl)c(C)c1[N+](=O)[O-]
 : 8	9
- Cc1cccn2c(NC(C)(C)CC(C)(C)C)c(-c3cccc(OC(=O)c4ccc5ccccc5c4)c3)nc12
 : 2	8
- CN(C)C(=O)C1CCCN1C(=O)Nc1ccn(Cc2ccccc2)n1 (stereo not given)
 : -1	-3
- Cc1ccc(Cn2ncc3c(N4CCN(c5ccccc5C)CC4)ncnc32)cc1
 : 12	6
- COc1ccccc1C1CC(c2ccccc2Cl)=NN1C(=O)CN1CCc2ccccc2C1 (stereo not given)
 : 0	10
- Cc1ccc(C2CC(c3ccc(Cl)cc3)=Nc3ncnn32)cc1 (stereo not given)
 : 21	19
- Cc1sc2nc(C(C)N3CCc4sccc4C3)[nH]c(=O)c2c1C (stereo not given)
 : -4	-5
- CCOC(=O)c1cc(Br)cc(F)c1NC(=O)COC
 : 1	8
- CCNC(=O)NC1(C(=O)N2CCCCCCC2)CCCC1
 : 10	8
- CCOc1ccccc1N1CCN(C(=O)Cc2ccccc2)C(C)C1=O (stereo not given)
 : 13	19
- COc1ccccc1NC(=O)C1=C(C)NC(=O)NC1c1cccc([N+](=O)[O-])c1 (stereo not given)
 : -1	-2
- COc1cccc2sc(N(CCCN(C)C)C(=O)c3cc(C)n(C)n3)nc12
 : 12	10
- O=C(CCc1cccnc1)Nc1cccc(C(=O)Nc2cccc(F)c2)c1
 : 10	3
- Cc1ccc(OCc2cc(C(=O)N3CCCC(CN4CCOCC4)C3)no2)cn1 (stereo not given)
 : 6	6
- O=C(NCCOc1ccccc1Cl)c1ccc2nc(-c3ccccc3)c(-c3ccccc3)nc2c1
 : -12	-16
- CN1CCc2cc(C(CNS(=O)(=O)c3cccs3)N3CCCC3)ccc21 (stereo not given)
 : 3	1
- COc1cc(OC)cc(C(=O)N2CCN(C(c3ccccc3)c3ccc(Br)cc3)CC2)c1 (stereo not given)
 : -1	10
- COc1ncccc1NC(=O)NC1CC1c1ccc(F)cc1 (stereo not given)
 : 4	4
- CC(C)(C)C(=O)Nc1ccccc1C(=O)N1CCN(Cc2ccccc2)CC1
 : 1	0
